# VDR inhibitor = Inhibitors of the vitamin D receptor (VDR): qHTS. AID 504847, 2011. VDR-SRC2-3 peptide fluorescence polarization, 2 h. actives 0.93% (n = 400,000). Potency, µM, without a hit: max response, negative = inhibition, hits mostly inhibitors. Vitamin D3 receptor (Homo sapiens), P11473; active means well fitted inhibition curve with a large enough effect; inconclusive means small, poorly fitted or top-dose-only effect, or another doubt; inactive means no such curve, though single readings can be large or run the other way; further: series mostly up to about 120 µM
# Target sequence (P11473 whole entry, looked up): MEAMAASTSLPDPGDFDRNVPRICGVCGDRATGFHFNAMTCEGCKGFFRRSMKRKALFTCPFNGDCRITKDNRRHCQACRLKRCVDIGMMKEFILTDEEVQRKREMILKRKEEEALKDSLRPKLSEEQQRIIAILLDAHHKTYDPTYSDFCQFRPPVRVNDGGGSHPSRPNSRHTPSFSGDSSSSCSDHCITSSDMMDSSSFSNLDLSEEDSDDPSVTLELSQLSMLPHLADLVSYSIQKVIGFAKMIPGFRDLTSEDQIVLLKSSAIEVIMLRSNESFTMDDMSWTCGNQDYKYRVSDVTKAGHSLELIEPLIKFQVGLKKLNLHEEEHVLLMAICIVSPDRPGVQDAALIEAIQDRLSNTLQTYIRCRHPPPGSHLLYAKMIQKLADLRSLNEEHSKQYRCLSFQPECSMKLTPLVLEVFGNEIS
#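 Inhibition of the VDR/SRC2-3 peptide interaction is quantified by fluorescence polarization. Compounds (23 nl, pintool) incubate with the reagents for 2 hours at ambient room temperature.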
# Starred values were filed as active, the others as inactive; ? = inconclusive; & = joins results of further samples. On the % scale 0 is the no-effect control and ±100 the full control effect; potency means the concentration at half of the fitted maximal effect. These rows are one share of the data (hit frequency here may not be typical).
SMILES,VDR inhibitor
CCCCC(=O)N/N=C/c1c(O)n(-c2cccc3ccccc23)c(=O)[nH]c1=O,17.3%
CC(=O)c1cn(CC(=O)NCCc2c[nH]c3ccccc23)c2ccccc12,-4.6%
CN1C(=O)C(=Cc2ccc(N3CCOCC3)o2)C(=O)N(C)C1=O,0.5%
[O]=[Cr](=[O])([OH])[O][Cr](=[O])(=[O])[OH],-7.8%&-10.9%
COC(=O)C1=C(c2ccccc2)C[C@@H]2CC[C@H]1N2C(=O)NC1CC1,-7.6%
O=C(COC(=O)Cc1ccccc1)Nc1cc(S(=O)(=O)N2CCCCC2)ccc1Cl,-13.5%
Cc1nc2cc(C(F)(F)F)ccc2n1C1CCN(Cc2nnnn2CCc2ccccc2)CC1,0.7%
N#CC(C#N)=NNc1ccc([N+](=O)[O-])cc1,?
CC(Cc1ccccc1)NC(=O)c1ccc(N)cc1 (configuration not stated),?
CN1CC2=CC(O)CC3Oc4c(O)ccc(c4[C@]23C)C1 (some centres not stated),-9.1%

# Single values from above:
# VDR inhibitor with `CCCCC(=O)N/N=C/c1c(O)n(-c2cccc3ccccc23)c(=O)[nH]c1=O` → 17.3%
# VDR inhibitor with `CC(=O)c1cn(CC(=O)NCCc2c[nH]c3ccccc23)c2ccccc12` → -4.6%

# Additional entries:
SMILES,VDR inhibitor
COc1cc(/C=C/[N+](=O)[O-])ccc1O,28.2µM*
O=C(C1CC(=O)N(C2CCCC2)C1)N1CCC2(CC1)OCCO2 (configuration not stated),7.5%
Cc1c(Cl)cccc1NC(=S)N1CC2CC(C1)c1cccc(=O)n1C2 (configuration not stated),-15.8%
CNC[C@H](O)c1ccc(O)c(OC)c1,1.4%
CC(C)C(O)(C(=O)OC[C@@H]1CC[N+]2([O-])CCCC12)C(C)O (some centres not stated),-3.7%
C=C[C@@H]1C2=CCOC(=O)C2=CO[C@H]1O[C@@H]1O[C@H](CO)[C@@H](O)[C@H](O)[C@H]1O,-6.7%
COc1ccccc1-c1[se]c2ccccc2c1I,-10.1%
O=C(Cc1ccccc1)Oc1ccc(N2C(=O)C3CCCCC3C2=O)cc1 (configuration not stated),2.7%
COC(=O)C1=C(c2ccc(F)cc2OCc2ccccc2)C[C@@H]2CC[C@H]1N2C(=O)N1CCC(O)(c2ccc(Cl)cc2)CC1,-2.1%
Cn1c(=O)n(C)c2cc(CNCCc3ccccc3F)ccc21,9.6%
CC(C(=O)Nc1ccc(Br)cc1C(=O)c1ccccc1)N1CCCCC1 (configuration not stated),8.3%
CN1CC[C@@]2(C)c3cc(O)ccc3N(C)[C@@H]12,?
COc1ccc(NC(=O)N2CC3(CCN(C(=O)Oc4ccccc4)CC3)C2)cc1,7.5%
Oc1ccccc1-[n+]1c(-c2ccccc2)cc(-c2ccccc2)c(O)c1-c1ccccc1,-3.1%
Cc1ccc(/C=C2/C(=O)NC(=O)N(CC3CCCO3)C2=O)s1 (configuration not stated),?
CCOC(=O)c1c(/N=C/C2C(=O)NC(=O)NC2=O)sc2c1CCC2,-10.3%
Cn1c(O)c(/C=N/N2CCCCC2)c(=O)[nH]c1=O,-8.9%
O=C1NS(=O)c2cc([N+](=O)[O-])cc([N+](=O)[O-])c21 (configuration not stated),?
Cc1cc(C)c(S(=O)(=O)NCC2CCC(C(=O)N3CCC4(CC3)OCCO4)CC2)c(C)c1 (configuration not stated),10.4%
Cc1cccc(-n2c(-c3ccc([N+](=O)[O-])cc3)nc3ccccc3c2=O)c1,-11.3%
CNP1(NC)=Nc2nn(-c3ccccc3)c(N)c2C(c2ccccc2)=N1,-5.3%
Cc1ccccc1N1CCN(C2CCCN(C(=O)Cc3c(C)noc3C)C2)CC1 (configuration not stated),-2.3%
O=c1[nH]c(=O)n(CCC2=CCCCC2)c(O)c1/C=N/Nc1cccc2ccccc12,?
CCOC(=O)C1SC2(C(F)(F)C(F)F)CC1(O)c1c(c(OC)c3occc3c1OC)O2 (configuration not stated),-7.3%
COC(=O)C1=C(c2ccc(F)cc2OCc2ccccc2)C[C@@H]2CC[C@H]1N2C(=O)NCCCOC(C)C,-10.7%
CCNC(=S)N1CCn2cccc2C1c1cccnc1 (configuration not stated),5.2%
CS(=O)(=O)N1CCC2(CC1)CN(Cc1ccncc1)C2,-15.6%
CCCOC(=O)c1ccc(-[n+]2c(-c3ccccc3)cc(-c3ccccc3)cc2-c2ccccc2)cc1,-2.2%
CC1C(=O)OC2C1CC[C@@]1(C)C=CC(=O)[C@@]3(C)O[C@@]213 (some centres not stated),17.6%
CC(=NCC1CCCO1)c1c(O)n(-c2ccccc2C)c(=O)[nH]c1=O (configuration not stated),12.3%
Cc1c(CC(=O)N2C[C@H]3C[C@@H](C2)c2cccc(=O)n2C3)c(=O)oc2c(C)c(O)ccc12,-12.8%
COC(=O)C1=C(c2cccc(OC)c2OC)C[C@@H]2CC[C@H]1N2C(=O)NC(C)C,-9.7%
Cc1ccc(-n2c(O)c(C=Nc3ccc(S(N)(=O)=O)cc3)c(=O)[nH]c2=O)cc1,8.4%
CN(C)C(Cc1ccccc1)C(=O)c1ccc(-c2ccccc2)cc1 (configuration not stated),1.1%
CN(C)C1(CNC(=O)c2ccc(NS(=O)(=O)c3ccc(Cl)c(Cl)c3)cc2)CCCCC1,-3.2%
C=CCn1c(O)c(C(CC)=Nc2cccc(C(=O)O)c2)c(=O)[nH]c1=O,1.9%
CC(C)Cn1cc(C(=O)N2CCC3(CC2)OCCO3)c2c3ccccc3n(C)c2c1=O,-9.0%
Nc1cc(Cl)c2nonc2c1[N+](=O)[O-],?
CCCCCn1c(=O)c(C(=O)NC(C)c2ccccc2)c(O)c2ccccc21 (configuration not stated),14.9%
Cn1c(O)c(C(=N)COc2cccc(Cl)c2)c(=O)n(C)c1=O,-12.9%
COC(=O)C1=C(c2cccc(OCc3ccccc3)c2)C[C@@H]2CC[C@H]1N2C(=O)NCCOc1ccccc1Cl,-14.8%
CCN(CC)C(=O)Oc1ccc(NC(=O)N2CCOCC2)cc1,?
Cc1cccc(CCNCc2cc3ccc(C)cc3[nH]c2=O)c1,15.6%
C=C(C)CN1CC[C@@]23c4c5ccc(O)c4O[C@H]2c2[nH]c4ccccc4c2C[C@]3(O)[C@@H]1C5,-0.1%
O=C(COc1ccccc1Cl)N1CCCC(N2CCN(c3ccc(F)cc3)CC2)C1 (configuration not stated),4.2%
CC(c1ccccc1)[n+]1ccccc1 (configuration not stated),-24.6%
Nc1c2c(nc3sc4c(c13)CCCCC4)CCCC2,5.0%
CN1C(=O)/C(=C/C=C/c2ccco2)C(=O)NC1=S,?
C[C@@H]1CC[C@H]2[C@@H](C)C(=O)O[C@@H]3OC4(C)CC[C@@H]1[C@]32OO4,-1.4%
Cc1ccc(-n2c(O)c(/C=N/NC(=O)c3ccncc3)c(=O)[nH]c2=O)cc1,-12.8%
# Later entries
SMILES,VDR inhibitor
CCSc1nnc(C(N)Cc2ccccc2)o1 (configuration not stated),-18.6%
O=C1CCCN1C(=O)c1cncc(Br)c1,-21.3%
CCC(=O)OC1(c2ccccc2)C(C)CN(C)CC1C (configuration not stated),-0.2%
CCOC(=O)C1(c2ccccc2)CCN(CCC(=O)Nc2ccc(F)cc2)CC1,12.7%
C[C@]12CCC3C(CC[C@H]4C[C@H](O)[C@H](O)C[C@]34C)C1CC[C@@H]2O (some centres not stated),-14.2%
COc1ccc(C2SCC(=O)Nc3c2c(C)nn3-c2ccccc2)cc1OC (configuration not stated),-0.6%
COc1ccccc1OCC(=O)N1CCN(Cc2ccc3c(c2)OCO3)CC1,-22.3%
O=C(/C=C/c1ccccc1)NCCc1cnc[nH]1,-19.4%
CC(=O)C1C(=O)NC23CCCCC2C1c1ccccc1O3 (configuration not stated),4.4%
CCOC(=O)C(O)(c1ccc(NC(=O)NC)cc1)C(F)(F)F (configuration not stated),-13.4%
Nc1cccc2c1Cc1cc([N+](=O)[O-])ccc1-2,-6.3%
COc1ccc(CN2CCCC(C(=O)c3sccc3C)C2)cc1O (configuration not stated),-3.3%
COC1=CC=C2[C@H]3Cc4ccc(OC)c5c4[C@@]2(CCN3C)[C@H]1O5,?
CN1Cc2cnnn2-c2ccccc2C1c1ccccc1 (configuration not stated),1.4%
C=CCn1c(O)c(C(C)=NCCC2=CCCCC2)c(=O)[nH]c1=O,0.0%
CCCc1nc2ccccc2c(=O)n1-c1ccc(OC)cc1,6.0%
O=C1/C(=C/c2cccnc2)N2CCC1CC2,2.7%
CN1CCc2nc3sc(C#N)c(N)c3c(-c3cccs3)c2C1,-29.2%
O=C1NC(=O)C(=Cc2ccc(Sc3ccccc3)o2)C(=O)N1,39.8µM*
Cc1cc(C)c(N=Cc2c(O)[nH]c(=O)[nH]c2=O)c(C)c1,18.4%
CN1C(=O)C(C2CCCCC2)C(=O)N(C)C1=O,-11.5%
COC(=O)CCCCC1SCC(NC(=O)c2ccccc2)C1Cl (configuration not stated),8.5%
COc1ccc(CCNCc2ccccc2)cc1,-13.5%
Cc1ccc(NP(=O)(Oc2ccccc2F)Oc2ccccc2F)cc1C,4.6%
CC(C)(C)OC(=O)c1ncn2c1[C@@H]1CCCN1C(=O)c1c(Br)cccc1-2,-10.1%&8.7%
CCCc1[nH][nH]c(=O)c1C(c1ccccc1)C(C#N)C#N (configuration not stated),?
COc1ccc(C(=O)C2(C)N(O)C(C)C(c3cccs3)=[N+]2[O-])cc1 (configuration not stated),11.2%
Nc1ccccc1C(=O)O,-0.1%
COc1ccccc1CC(=O)N1CCN(CCc2ccccc2)CC1,-14.3%
O=c1c2ccccc2ncn1-c1ccc([N+](=O)[O-])c(C(F)(F)F)c1,9.8%
C[C@]12CCC3C(CC[C@H]4[C@H](O)[C@H](O)CC[C@]34C)C1CC[C@@H]2O (some centres not stated),5.8%
O=c1[nH]c(=O)n(CCc2ccccc2)c(O)c1C=NCCN1CCNCC1,-0.2%
Cc1ccccc1-c1nc(CN2C(=O)CN=C(c3ccccc3)c3ccccc32)c(C)o1,9.1%
CC(=O)c1cn(Cc2ccc(F)cc2)c2ccccc12,-16.3%
CCCCn1c(NS(=O)(=O)c2ccccc2)c(C(=O)OCC)c2nc3ccccc3nc21,44.7µM*
CCN(CC)P(c1n(C)cc[n+]1C)N(CC)CC,-9.2%
O=C(Cc1cc(=O)oc2cc(O)ccc12)NN=Cc1ccc(N(CCCl)CCCl)cc1,11.8%
CCCNC(=O)N1[C@H]2CC[C@@H]1C(C(=O)OC)=C(c1ccc(C(C)=O)cc1)C2,0.7%
Cc1cc(C)nc(-n2c(C)nc3cc(Cl)ccc3c2=O)c1,15.9%
C=CCn1c(O)c(C(CC)=Nc2ccc(N(CC)CC)cc2)c(=O)[nH]c1=O,-24.1%

# Another view of 4 compounds above:
molecule | VDR inhibitor
Cn1c(O)c(C(=N)COc2cccc(Cl)c2)c(=O)n(C)c1=O | -12.9%
COC(=O)C1=C(c2cccc(OCc3ccccc3)c2)C[C@@H]2CC[C@H]1N2C(=O)NCCOc1ccccc1Cl | -14.8%
CCN(CC)C(=O)Oc1ccc(NC(=O)N2CCOCC2)cc1 | ?
Cc1cccc(CCNCc2cc3ccc(C)cc3[nH]c2=O)c1 | 15.6%

# More records
SMILES,VDR inhibitor
C=CCn1c(O)c(C=NC2CCN(Cc3ccccc3)CC2)c(=O)[nH]c1=O,5.0%
CCOc1ccc(N2C(=O)NC(=O)/C(=C/c3cnc(SC)nc3)C2=O)cc1,39.8µM*
Cc1[nH]n(-c2ccccc2)c(=O)c1C(c1cccc([N+](=O)[O-])c1O)c1c(C)[nH]n(-c2ccccc2)c1=O,?
C=C(C)C1(CCCC)C(=O)NC(=S)NC1=O,-17.0%
CC(C)Cc1nc2cccnc2n1C1CCNCC1,9.2%
N#CC1=C(N)Oc2c(c(=O)oc3ccccc23)C1c1cccnc1 (configuration not stated),-15.9%
O=C(/C=C/c1ccc(Cl)cc1)NC(=S)N1C[C@H]2C[C@H](C1)c1cccc(=O)n1C2,12.3%
O=C(NCc1ccccn1)c1ccccc1Cl,9.9%
CN(C)C(=O)Oc1cccc2c(OC(=O)N(C)C)cccc12,-3.9%
C=CCN1C(=O)NC(=O)/C(=C/c2cnc(SC)nc2)C1=O,28.2µM*

# Pulled by compound from above (3):
SMILES,VDR inhibitor
O=C(/C=C/c1ccc(Cl)cc1)NC(=S)N1C[C@H]2C[C@H](C1)c1cccc(=O)n1C2,12.3%
Cc1[nH]n(-c2ccccc2)c(=O)c1C(c1cccc([N+](=O)[O-])c1O)c1c(C)[nH]n(-c2ccccc2)c1=O,?
C=C(C)C1(CCCC)C(=O)NC(=S)NC1=O,-17.0%

# (further entries)
SMILES,VDR inhibitor
CC/C(=C\C=C\[C@@H]1C=C[C@@H]2CCC[C@H]2[C@@H]1C(=O)c1ccc[nH]1)[C@@H]1O[C@@H]([C@@H](C)C(=O)O)CC[C@@H]1C,1.7%
O=[N+]([O-])c1cc(I)c(O)c(I)c1,?
Cc1cccc(NC(=O)Cn2cc(C(=O)c3ccccc3)c3ccccc32)c1C,-1.3%
CCCCCCn1c(=O)c(C(=O)Nc2ncccc2C)c(O)c2ccccc21,-11.5%
CCCCOC(=O)N(C)SN(C)C(=O)Oc1cccc2c1OC(C)(C)C2,3.16µM*
CC/C=C/CC(=O)N[C@@H](c1ccccc1)[C@@H](O)C(=O)O[C@H]1C[C@@]2(O)[C@@H](OC(=O)c3ccccc3)C3[C@](C)(C(=O)[C@H](OC(C)=O)C(=C1C)C2(C)C)[C@@H](O)C[C@H]1OC[C@@]31OC(C)=O (some centres not stated),-11.2%
COc1ccc(CC[n+]2cc(/N=C(\C)[O-])on2)cc1OC,-16.5%
O=C(CNS(=O)(=O)c1cccs1)N1CCC2(CC1)OCCO2,-0.7%
COCCNC(=O)N1[C@H]2CC[C@@H]1C(C(=O)OC)=C(c1cccc(C#N)c1)C2,8.0%
Cc1cc(C)cc(N2C(=O)NC(=O)/C(=C\c3cc(C)n(C)c3C)C2=O)c1,-11.9%
COc1ccc([C@@H](O)[C@@H](N)c2ccccc2)cc1,-4.0%
Cc1ccc(-n2c(-c3cccs3)nc3ccccc3c2=O)cc1,-8.3%
